AID504770 = growth inhibitors of E. coli YBA685 in a screen for V. cholerae RctB (chromosome II replication) inhibitors | E. coli YBA685 rctB-dependent plasmid, OD600 growth, 3 h; hits give low values | z-score (test concentration not listed) | 130,000 tested, 0.27% active;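 active means z-score under -2 on both plates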;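 further: wells of about 30 µL received 100 nL stock; score is relative to mean and SD of the test wells; the first replicate is given; strong numbers were not always called active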
Ba CapD inh = blocks the Bacillus anthracis CapD enzyme; purified CapD enzyme, fluorescence intensity read-out; hits give low values; some hits fall short of the stated cut; z-score (concentration not given with the values); 140,000 tested, 0.23% active;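 active means z-score under -4 in either of two replicates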;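 further: stock transfer was 100 nL into about 40 µL; score is relative to mean and spread of the plate; one replicate is shown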
Starred values were filed as active, the others as inactive; . = not tested or not shown. Some of the compounds tested. The share of hits here may be higher or lower than overall.

smiles,AID504770,Ba CapD inh
CCOC(=O)C1=C(C)NC2=C(C(=O)C(C(=O)OCC)C(c3ccc(OC)cc3)C2)C1c1ccc(N(C)C)cc1 (centres undefined),.,-0.38
Oc1ccccc1N1CCN(c2nc(CN3CCOCC3)nc3sc4c(c23)CCCC4)CC1,-0.4,.
C=C(C)n1c(=O)[nH]c2ccccc21,0.25,0.35
O=S(=O)(N=P(Nc1nccs1)(c1ccccc1)c1ccccc1)c1ccccc1,-0.35,.
OC(CNC1CCCCC1)CNC1CCCCC1,-0.8,-0.085
Cc1ccc(Cn2[nH]nnc2=S)cc1,.,-0.23
COc1ccc2[nH]cc(C3CC(=O)N(c4cccc(C(F)(F)F)c4)C3=O)c2c1 (centres undefined),.,-0.88
COc1ccccc1N1CCN(C(=O)CN(Cc2ccccc2)S(=O)(=O)c2ccc(F)cc2)CC1,0.2,-0.56
CCOC(=O)N1CCC(N2Cc3cccc(C(=O)O)c3C2=O)CC1,-0.45,-0.17
COc1cccc(C(=O)Nc2cccc(-c3cn4cccnc4n3)c2)c1OC,0.3,114
Cc1ccc(NC(=O)OCC(F)(F)F)cc1Cl,0.3,.
Cc1cccn2cc(-c3cccc(S(=O)(=O)N(C)C)c3)nc12,-0.9,37

Other compounds.
smiles,AID504770,Ba CapD inh
O=C(NCC1CCCO1)C1CCCN(S(=O)(=O)c2ccc(Br)cc2)C1 (centres undefined),0.75,0.33
COc1ccc(-n2ncc3c(N4CCN(c5ccccc5Cl)CC4)ncnc32)cc1,.,-0.82
O=C(N/N=C/c1ccccc1O)c1ccc(OC(F)(F)F)cc1,.,0.36
COc1ccc(-n2nc(C(=O)NN)c(Sc3ccc(C)cc3)cc2=O)cc1,.,-0.11
CC1(C)CC(=O)C2=C(C1)Nc1ccccc1N(C(=O)c1ccccc1)C2c1ccc([N+](=O)[O-])cc1 (centres undefined),.,-1.1
O=c1ccc(=O)n(Cc2ccccc2)[nH]1,-0.55,.
CCCc1cc(=O)oc2cc3occ(-c4ccccc4)c3cc12,-4.2,-0.72
NCc1ccc(-c2nc3ccccc3o2)cc1,-1.1,13
CNCCC=C1c2ccccc2C=Cc2ccccc21,.,2.2
CC(c1ccco1)N(C(=O)/C=C/c1cccs1)c1ccccn1 (centres undefined),-0.3,0.34
CC1CCC2(CC1)NC(=O)N(NC(=O)CN1c3cccc4cccc(c34)S1(=O)=O)C2=O (centres undefined),-0.15,.
Cc1cnc(-c2oc3ccc(Br)cc3c(=O)c2C)cn1,1.9,.

Later entries.
smiles,AID504770,Ba CapD inh
CC(C)N1C(=O)CCC1C(=O)NCCc1ccccc1 (centres undefined),-0.35,0.27
Cn1c(=O)n(C)c2cc(C(N)=O)ccc21,-0.3,-0.21
O=C1/C(=C/c2ccc(Br)cc2)C=C(c2ccccc2)N1c1ccccc1O,0,1.1
COc1ccc(OC)c(NC(=O)c2cc3n(n2)C(C(F)(F)F)CC(c2ccc(OC)c(OC)c2)N3)c1 (centres undefined),.,0.27
Cc1ccc(N(CC(=O)N2CCN(c3ccccc3)CC2)C2=NC(=O)CS2)cc1,0.4,.
COc1cccc(-n2c(SCC(=O)Nc3cc(OC)ccc3OC)nc3n[nH]c(C)c3c2=N)c1,.,-0.36
COc1cccc(C2C(C(=O)Nc3cccc(F)c3)=C(C)NC3=C2C(=O)CC(C)(C)C3)c1OC (centres undefined),.,23
COc1ccc(CC(=O)NCC2(c3ccccc3)CCCC2)cc1OC,.,4.4
COc1ccc(O)c(C(C)(C)C)c1,-0.4,0.11
CC(=O)Nc1ccc(CN2CCOCC2)cc1,-0.25,0.43
N#CC1C(=O)Nc2nc(N)[nH]c(=O)c2C1c1ccc(F)cc1 (centres undefined),-0.55,.
CSc1nc2ccc(NC(=O)C3CCCO3)cc2s1 (centres undefined),-0.55,.

Full records, quoted from the list. Order of values: AID504770, Ba CapD inh
CC(C)N1C(=O)CCC1C(=O)NCCc1ccccc1 (centres undefined) is entered as -0.35, 0.27
COc1ccc(O)c(C(C)(C)C)c1 is entered as -0.4, 0.11

(cont.)
smiles,AID504770,Ba CapD inh
Cc1nnc(NC(=O)CN2C(=O)/C(=C/c3cccc(Br)c3)SC2=S)s1,.,-0.16
c1ccc(OCCOc2ccccc2-c2nnco2)cc1,1.3,.
Cc1oc(-c2ccccc2)nc1CC(=O)NC(Cc1c[nH]c2ccccc12)C(=O)OC(C)(C)C (centres undefined),.,-1.3
CC1(C)CC(=O)C(C2(O)C(=O)N(CN3CCOCC3)c3ccccc32)CO1 (centres undefined),-0.05,-1.3
OCCN=C(c1ccc(Cl)cc1)N1CCN(C(=NCCO)c2ccc(Cl)cc2)CC1,-1.1,0.28
CC(C)(C)c1ccc(NC(=O)N2CCCN(c3ccc([N+](=O)[O-])cn3)CC2)cc1,.,-1.1
NC(=O)C1CCN(c2nccc(C(F)(F)F)n2)CC1,1.7,-0.26
CC1=CC2(O)OCCN(Cc3ccccc3)C2=CC1=O (centres undefined),0.1,.
O=C(O)CSCC(=O)c1c[nH]c2ccccc12,-0.15,-1.1
CN(C)S(=O)(=O)N1CCNCC1,-0.3,.
COc1ccc(C2C(=O)N(C3CCCC3)CC(=O)N2Cc2cccs2)cc1 (centres undefined),-1.7,-1.2
COC(=O)c1ccc(CSc2cc(C)c3ccccc3n2)o1,0.1,.

Further records.
smiles,AID504770,Ba CapD inh
CCn1nnc2cc(C(=O)OCC(=O)Nc3cc(OC)cc(OC)c3)ccc21,0.35,.
O=c1c2ccccc2ncn1Cc1ccc(F)cc1,-0.25,0.3
O=c1c(-c2ccc(Oc3ccccc3)cc2)[n+]([O-])c2ccccc2n1O,0.2,2.2
Cn1c(=O)n(C)c2cc(S(=O)(=O)N3CCCC3)ccc21,-0.55,0.27
O=C1Nc2ccccc2/C1=C/C(=O)c1ccc(Cl)cc1,1.5,0.51
O=C(NN1S(=O)(=O)c2ccccc2S1(=O)=O)c1cccc(F)c1,.,-4.1*
CC1CCCN(S(=O)(=O)c2ccc(S(=O)(=O)N(Cc3cccs3)Cc3cccs3)cc2)C1 (centres undefined),1.4,.
NS(=O)(=O)c1ccc(N2C(=O)c3ccc([N+](=O)[O-])c4c([N+](=O)[O-])ccc(c34)C2=O)cc1,.,-0.29
Cn1nnc2cc(C(=O)N3CCSCC3)ccc21,-0.6,.
O=C(CCS(=O)(=O)c1nc(-c2ccc3c(c2)OCO3)cc(C(F)(F)F)n1)ON=C1CCCCC1,0.35,1.9
Cc1nn(-c2ccccc2)nc1C(=O)N1CCN(S(=O)(=O)c2ccc3c(c2)OCCCO3)CC1,-0.2,.
CCc1ccc(NC(=O)N2CCn3c(C)ccc3C2CC)cc1 (centres undefined),-0.1,6.4

An excerpt from above in order of molar mass, smallest number first:
smiles,AID504770,Ba CapD inh
O=C1Nc2ccccc2/C1=C/C(=O)c1ccc(Cl)cc1,1.5,0.51
CCc1ccc(NC(=O)N2CCn3c(C)ccc3C2CC)cc1 (centres undefined),-0.1,6.4
O=C(NN1S(=O)(=O)c2ccccc2S1(=O)=O)c1cccc(F)c1,.,-4.1*
NS(=O)(=O)c1ccc(N2C(=O)c3ccc([N+](=O)[O-])c4c([N+](=O)[O-])ccc(c34)C2=O)cc1,.,-0.29
O=C(CCS(=O)(=O)c1nc(-c2ccc3c(c2)OCO3)cc(C(F)(F)F)n1)ON=C1CCCCC1,0.35,1.9
CC1CCCN(S(=O)(=O)c2ccc(S(=O)(=O)N(Cc3cccs3)Cc3cccs3)cc2)C1 (centres undefined),1.4,.

Other results.
smiles,AID504770,Ba CapD inh
O=C(NCCc1ccccc1)c1ccc2nonc2c1,.,-0.62
COc1cc(-c2nc3cc(OC(C)=O)ccc3c(=O)o2)cc(OC)c1OC,-0.3,0.44
CC(C)(C)NC(=O)COc1ccc(CNC2C3CC4CC(C3)CC2C4)cc1 (centres undefined),0.15,0.16
O=S(=O)(NCCSCSc1nnc(SCCNS(=O)(=O)c2ccccc2)s1)c1ccccc1,.,-0.54
N#C/C(=C\c1ccc(SCc2ccc(Cl)cc2)o1)C(=O)NCc1ccco1,-0.75,-1.9
CCOC(=O)/C(C#N)=C/Nc1ccn(C)n1,-0.85,-2
CCOC(=O)C1=C(O)/C(=C/c2ccccc2)SC1=Nc1ccc(OC)cc1,.,-0.21
CCOC(=O)c1sc2nc(CC(=O)OC)nc(NCCOC)c2c1C,.,52
Cc1ccccc1CSCc1ccc(C(=O)N2CCNc3ccccc3C2)o1,-0.25,4
CCN(CC)S(=O)(=O)c1cc(C(=O)NCCc2ccc(Cl)cc2)ccc1F,-0.15,0.12
CN1C(=O)/C(=C/C=C2/Sc3ccccc3N2CCO)SC1=S,2,.
O=C(O)c1ccc(CSc2ccc(Cl)cc2)o1,-0.45,-0.23

The list continues:
smiles,AID504770,Ba CapD inh
CC(C)CCNC(=O)c1sc2ccc(S(=O)(=O)N3CCCCC3)cc2c1N,-0.05,0.9
N#Cc1ccc(CSc2nc(-c3ccccc3)cc(=O)[nH]2)cc1,0.55,1.1
CSC(C)/C(=N/O)c1ccccc1 (centres undefined),-0.1,-0.75
O=S(=O)(c1ccc(-c2csc(Nc3ccc(Br)cc3)n2)cc1)N1CCCCC1,0.45,28
COc1cccc(N/C(SCc2cccc(F)c2)=C(/C#N)C(N)=O)c1,.,0.23
CCOC(=O)C1CCCN(c2nc3c(C)cc(C)cc3s2)C1 (centres undefined),-0.55,-0.24
CCOC(=O)C1=C(C)NC(C)=C(C(=O)OCC)C1C(=O)OCC(=O)NCc1ccccc1OC,0,.
CCOC(=O)C1=C(C)NC2=C(C(=O)C(C(=O)OCC)C(c3ccccc3OC)C2)C1c1cc(OC)ccc1OC (centres undefined),.,7.4
c1ccc(-c2nc(NC3CC3)nc(-n3ccnc3)n2)cc1,0.65,-0.31
COC(=O)C(C)c1ccc(C(=O)c2cccs2)cc1 (centres undefined),-0.35,.
CCc1ccc(NC(=O)c2cc(S(=O)(=O)NC3CCCCC3)ccc2F)cc1,.,-0.48
CCCCn1c(C)c(C(=O)OCC)c2cc(OC(=O)COc3ccccc3)c3ccccc3c21,.,-0.89

Additional results:
smiles,AID504770,Ba CapD inh
O=C(Nc1ccccc1)c1cccn(OCc2ccccc2)c1=O,-0.1,0.38
COc1cccc(COC(=O)N2CCN(c3cc(C(F)(F)F)nc4cc(C(C)(C)C)nn34)CC2)c1OC,.,3.7
Cc1cc(OCCN2CCOCC2)nc(N2CCOCC2)n1,0.4,.
CCOC(=O)C1=C(C)N=c2s/c(=C/c3cc4c(cc3Br)OCO4)c(=O)n2C1c1cc(OC)ccc1OC (centres undefined),.,-0.87
CCOC(=O)c1cc(-c2ccc(S(=O)(=O)NC3CC3)s2)on1,0.65,0.15
CCOC(=O)c1ccsc1NC(=O)/C=C/c1cccs1,-0.65,.
O=C(CCS(=O)(=O)c1ccc2c(c1)CCN2C(=O)C1CC1)NCc1ccccc1,-0.15,-0.18
Oc1oc(-c2ccc(Br)cc2)nc1C=Nc1ccc(F)cc1,.,-0.5
COc1cc(-c2nc3ccccc3[nH]2)cc(OC)c1OC,0.8,44
COc1cccc(/C=N/n2c(-c3ccco3)csc2=NC2CCCCC2)c1O,-1,.
O=C(NC1CC1)c1ccc2c(c1)N(Cc1ccccc1)C(=O)c1ccccc1S2=O (centres undefined),0.3,-0.53
O=C(NC1CC1)C1CCCN1S(=O)(=O)c1ccccc1 (centres undefined),-0.45,.

(listing goes on)
smiles,AID504770,Ba CapD inh
CCOC(=O)C1=C(C)NC2=C(C(=O)C(C(=O)OCC)C(c3ccc(OC)cc3)C2)C1c1ccc(N(CC)CC)cc1 (centres undefined),.,-0.51
COCCOC(=O)C1=C(C)NC(=O)NC1c1cn(-c2ccccc2)nc1-c1cccs1 (centres undefined),.,0.58
CCCCC#Cc1cncc(C(=O)NN)c1,.,0.11
COC(=O)c1ccc(NC(=O)c2ccc(Cl)c(Cl)c2)cc1OC,.,-0.08
CSc1ncc(Cl)c(C(=O)Nc2c(C(=O)Nc3ccc(C)cc3)oc3ccccc23)n1,0.15,-0.35
CCOC(=O)C1CCN(C=Nc2cc(C)on2)CC1,-0.15,.
CCn1c(O)c(C=Nc2ccc(C)cc2)c(=O)n(CC)c1=S,-0.5,.
CN1CCN(c2ccc(NC(=O)c3cccs3)cc2)CC1,0.15,0.065
O=C(Oc1c(-c2ccccc2)c(=O)n2c3c(cccc13)CC2)c1ccccc1,-0.75,72
S=C(Nc1cccnc1)N1CCc2ccccc21,-0.4,-1.2
Cc1cccc(C(=O)N2CCCN(C(=O)c3cccc(C)c3)CC2)c1,-0.6,-0.38
Cc1ccccc1C(OCC(O)CN(C)C1CCN(C)CC1)c1ccccc1 (centres undefined),1.6,.

Continued.
smiles,AID504770,Ba CapD inh
Cc1cc(C)nc(NS(=O)(=O)c2ccc(NC(=O)NC(=O)N(C)S(C)(=O)=O)cc2)n1,.,0.1
Cc1cc(C)nc(Nc2ccc(OC(F)(F)F)cc2)n1,.,0.5
Cc1ccccc1C1C2=C(CCCC2=O)OC2=C1C(=O)CCC2,.,0.27
CCc1cccc(NC(=O)Cn2cc(S(=O)(=O)N3CCCC3)c(S(=O)(=O)N3CCCC3)c2)c1,-0.2,-0.88
COc1ccc(NC(=O)c2cc3cccc(OC)c3oc2=Nc2ccc(C(=O)O)cc2)cc1,.,0.22
CN(C(=O)Cn1c(SCc2cccc(F)c2)nc2ccncc21)c1ccccc1,0,-0.89
Cc1ccc(C)c(NC(=O)CSC2=C(C#N)C(c3ccc(Cl)cc3Cl)CC(=O)N2)c1 (centres undefined),.,-0.39
COc1ccc(S(=O)(=O)/N=C2/NC(=O)/C(=C\c3ccc(OC)c(OC)c3)S2)cc1,.,0.045
Cc1[nH]n2c(=O)c3c(nc2c1-c1ccc(Cl)cc1)CCC3,-0.5,1.1
O=C1/C(=C/c2ccccc2C(F)(F)F)N2CCC1CC2,-0.7,-0.36

High-throughput results: PubChem, ICCB-Longwood Screening Facility, Harvard Medical School
